# PINK1 expr mod: A Quantitative High throughput Screen to Identify Chemical Modulators of PINK1 Expression. 0.2% of 410,000 active. Potency, µM (doses to about 76.6 µM), without a hit: at the highest dose activation (PINK1 increase), usual class: activators. AID 624263, 2012. PINK1 immunofluorescence, high-content cytometry, 24 h; active = well fitted activation curve with a large enough effect; inconclusive = small, poorly fitted or top-dose-only effect; inactive = flat fitted curve, though single readings scatter; cell line not stated here;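 further: potency means the concentration at half of the fitted maximal effect; % of control where 0% means no effect; nearly all actives have a fitted effect of over 65% in size; a mitochondrial uncoupler was the plate control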
#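 PINK1 protein, normally rapidly degraded, was detected by immunofluorescence after 24 hour compound treatment of a stable cell line. Titration data (5 concentrations) came from laser-scanning cytometry, with CCCP-treated wells as controls.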
# TRPML1 inh: qHTS for Inhibitors of the Human Mucolipin Transient Receptor Potential 1 (TRPML1) | AID 624415, 2012 | 0.02% of 390,000 active | activity change, negative = inhibition, % (test concentration not listed) | TRPML1-inducible cells, Ca2+ dye fluorescence, FDSS; hits give low values; inhibition of EC80 agonist-evoked calcium signal; in the data active means activity change below about -50%; inconclusive means about -30% to -50%; inactive means above about -30%;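 further: stimulus is agonist 54-4 at its EC80 concentration; on the % scale 0 is the no-effect control and ±100 the full control effect; compound concentration not given in the record; the text of the record puts the active cut at -80%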
#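 Calcium fluorescence in TRPML1-DL cells induced overnight with Tet: a 110 s read after compound pin addition, then a 110 s antagonist read after challenge with 54-4 at 4 uM final (EC80).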
# Sfp inh: qHTS Assay for Inhibitors of Bacillus subtilis Sfp phosphopantetheinyl transferase (PPTase). Biochemical Sfp PPTase activity, qHTS. Potency, µM, without a hit: max response, negative = inhibition, most hits filed as inhibitors. 3.5% of 310,000 active; active means well fitted inhibition curve with a large enough effect; inconclusive means small, poorly fitted or top-dose-only effect, or another doubt; inactive means no such curve, though single readings can be large or run the other way;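 further: the enzyme is Sfp with the accession as filed and its product quenches rhodamine fluorescence; potency means the concentration at half of the fitted maximal effect; 0% = enzyme reaction without inhibitor and -100% = no enzyme wells; top concentration of the series not given in the record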
#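 With Hepes-Na pH 7.6 buffer containing 10 mM MgCl2, Sfp (15 nM) modified BHQ-2-YbbR (12.5 uM) using rhodamine-CoA (5 uM). Two reads 30 minutes apart at 525/598 nm yielded each well's rate.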
# TRPML1 ag: qHTS for Agonists of the Human Mucolipin Transient Receptor Potential 1 (TRPML1) | Mucolipin-1 (Homo sapiens), Q9GZU1 | TRPML1-expressing cells, Ca2+ dye fluorescence, FDSS; host cell line not named in the record; reference of the full effect not given here | activation, % (concentration not given with the values) | 0.12% of 410,000 active; in the data active = activation above about 50%; inconclusive = about 30% to 50%; inactive = below about 30%; further: 0% is about no effect; the text of the record puts the active cut at 80%
#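 Calcium fluorescence on an FDSS kinetic reader gave the read-out. Tet-induced TRPML1-DL cells were plated overnight, dye-loaded (Ca8 with quencher, 45-90 min, room temperature, dark), then read 110 s after compound addition, and again 110 s after 4uM final 54-4 (EC80).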
# ClpP mod: qHTS Assay for Activators of ClpP; purified B. subtilis ClpP, FRET peptide cleavage, 20 min; AID 651965, 2013; Potency, µM (series often up to 57.5 µM), inactives show top-dose activity change, negative = active; 1.9% of 340,000 active; active = well fitted falling curve with a large enough effect; inconclusive = small, poorly fitted or top-dose-only effect; inactive = no such curve, though single readings can be large or run the other way; further: potency means the concentration at half of the fitted maximal effect; the source files actives as falling curves though it sought activators and does not explain the sign; nearly all actives have a fitted effect of over 65% in size; many hits overshoot -100%
# Target sequence (P80244 whole entry, looked up): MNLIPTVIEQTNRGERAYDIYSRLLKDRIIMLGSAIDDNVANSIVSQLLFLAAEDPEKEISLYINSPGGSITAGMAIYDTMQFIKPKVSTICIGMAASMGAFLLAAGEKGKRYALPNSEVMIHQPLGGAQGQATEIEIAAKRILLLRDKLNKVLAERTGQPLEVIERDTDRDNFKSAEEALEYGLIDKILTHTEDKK
#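 FRET quenching reversal measured ClpP activation: 10 microg/mL B. subtilis ClpP at pH 8 with the FRET-FV decapeptide, read at 430 nm after 320 nm excitation. The 20-min minus 0-min signal was scaled between DMSO/no-enzyme wells and ADEP (5.8 microM final).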
# Menin-MLL FL inh: qHTS Assay for Inhibitors Targeting the Menin-MLL Interaction in MLL Related Leukemias: Competition With Fluorescein Labeled MLL-derived Peptide; Fluorescence polarization, fluorescein-MLL peptide displacement from menin; FP activity change, % at 61.4 µM; 290,000 tested, under 10 active; AID 1766, 2009; inconclusive = falling polarisation curve, or a change in total fluorescence; inactive = total fluorescence flat and polarisation flat or rising; no compound was filed as active; the % refers to the polarisation; negative = inhibition;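 further: % of control where 0% means no effect; inhibitors lower the polarisation; unlabelled MLL peptide was the positive control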
# TRPV1 potentiator: HTS Assay for Compounds that Act as Potentiators of the Vanilloid Receptor 1 | Transient receptor potential cation channel subfamily V member 1 (Homo sapiens), Q8NER1 | TRPV1-expressing cells, Fluo-8 calcium influx, capsaicin EC20 potentiation; host cell line not named in the record; control for the full effect not named in the record | potentiation, % at 8.33 µM | 0.02% of 320,000 active; active means potentiation above 80%; inconclusive means 30% to 80%; inactive means below 30%; further: 0% is about no effect
# Target sequence (Q8NER1 whole entry, looked up): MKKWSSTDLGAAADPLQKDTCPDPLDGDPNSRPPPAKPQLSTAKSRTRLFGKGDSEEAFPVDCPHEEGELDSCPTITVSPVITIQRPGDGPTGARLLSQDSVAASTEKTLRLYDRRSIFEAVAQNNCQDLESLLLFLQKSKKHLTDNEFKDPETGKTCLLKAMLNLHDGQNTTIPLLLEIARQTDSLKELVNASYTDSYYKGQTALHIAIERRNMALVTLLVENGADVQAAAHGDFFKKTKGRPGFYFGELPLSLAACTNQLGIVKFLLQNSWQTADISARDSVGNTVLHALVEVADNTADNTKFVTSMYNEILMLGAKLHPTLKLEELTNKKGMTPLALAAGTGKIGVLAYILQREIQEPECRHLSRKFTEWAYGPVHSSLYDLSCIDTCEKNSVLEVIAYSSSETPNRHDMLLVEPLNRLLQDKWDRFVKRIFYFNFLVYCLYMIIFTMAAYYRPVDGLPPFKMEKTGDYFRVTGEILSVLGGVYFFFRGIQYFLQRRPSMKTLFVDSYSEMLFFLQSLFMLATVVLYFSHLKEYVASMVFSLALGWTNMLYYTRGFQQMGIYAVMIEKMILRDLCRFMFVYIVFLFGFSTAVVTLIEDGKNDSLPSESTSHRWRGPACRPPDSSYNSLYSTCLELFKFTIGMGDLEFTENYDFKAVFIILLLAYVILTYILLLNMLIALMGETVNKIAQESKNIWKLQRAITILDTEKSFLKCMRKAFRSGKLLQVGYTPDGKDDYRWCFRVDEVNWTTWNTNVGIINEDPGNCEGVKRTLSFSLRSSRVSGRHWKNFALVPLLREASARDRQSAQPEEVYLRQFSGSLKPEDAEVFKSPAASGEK
#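 Cells expressing TRPV1 were dye-loaded with Fluo-8 and read kinetically: 10 s baseline, 3 min after compound (agonist portion), then 2 min after EC20 capsaicin (allosteric enhancer portion). Calcium-bound dye fluorescence at 480/520 nm.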
# An asterisk follows results filed as active; ? = inconclusive; . = not tested or not shown; & = joins results of further samples; [ ] = another dose, or the depositor's remark.
cpd	structure	TRPML1 ag	PINK1 expr mod	Menin-MLL FL inh	TRPML1 inh	Sfp inh	TRPV1 potentiator	ClpP mod
1	Cc1ccc(C2(c3noc(CN(C)Cc4cnn(C)c4)n3)CCCC2)cc1	-0.7	-0.6%	5.2	5.3	9.8%	3.9	.
2	COc1ccccc1-n1cc(-c2ccc(Cl)cc2)[nH]c1=O	3.0	-0.8%	-3.0	30.3	-3.8%	4.6	-3.5%
3	COc1ccccc1CNC(=O)COC(=O)c1cccnc1SCC(=O)NCc1ccccc1OC	1.0	14.6%	5.2	1.5	-14.4%	-7.1	-1.4%
4	CCc1cccc(CC)c1NC(=O)C(CC)Sc1nc2ccsc2c(=O)n1CCC(=O)O (stereo not given)	-1.2	10.2%	.	7.7	.	.	-2.7%
5	CCOc1ccc(NC(=O)C2CC(=O)N=C(N)S2)cc1 (stereo not given)	-0.2	1.2%	0.3	5.7	8.9%	-3.3	0.8%
6	Cc1cc(C)c(C#N)c(SCC(=O)NN2CC(=O)N(c3ccccc3F)CC2=O)n1	0.8	1.3%	2.3	-2.6	-23.8%	9.4	0.9%
7	O=Cc1c(NC2CCCCC2)c2ccccc2[nH]c1=O	1.0	-1.1%	-2.1	-15.8	6.7%	-14.6	0.0%
8	COc1ccccc1C(=O)NCCC(=O)NCC(c1ccc(F)cc1)N1CCOCC1 (stereo not given)	-0.3	2.6%	.	4.6	.	-2.3	0.7%
9	CCCC(=O)NCC(c1ccc2c(c1)OCO2)N1CCOCC1 (stereo not given)	0.7	0.6%	.	-20.4	.	.	-0.1%
10	CCCC(C)NC(=O)c1ccc(F)cc1 (stereo not given)	-0.3	-0.4%	-1.0	-2.9	-3.8%	6.4	-0.6%
11	CCCc1cc(=O)oc2cc3occ(C)c3cc12	1.0	-3.8%	3.5	15.5	4.8%	-4.1	?
12	Oc1c(C(c2ccc(Cl)cc2Cl)N2CCOCC2)sc2nc(-c3ccco3)nn12 (stereo not given)	4.1	1.4%	.	30.4	.	.	-2.1%
13	COCCNc1nc2sc3c(c2c(=O)n1Cc1ccco1)CCCCC3	-0.5	5.5%	0.7	4.4	13.5%	-3.1	.
14	Nc1cc(=O)nc(SCC(=O)Nc2ccc(F)cc2)n1-c1ccc(Cl)cc1	-0.2	2.0%	.	-6.8	.	.	0.8%
15	CSc1nc2c(c(=O)[nH]1)C(c1ccccc1Cl)CC(=O)N2 (stereo not given)	-0.2	0.8%	-0.8	-8.3	29.3%	3.2	.
16	Fc1ccccc1Nc1nc(N2CCOCC2)nc(N2CCOCC2)n1	0.4	1.5%	-2.8	11.2	12.5%	-10.7	3.0%
17	COCc1cc(=O)[nH]c(-c2ccc(C(F)(F)F)cc2)n1	4.8	-0.5%	-6.1	14.3	6.7%	26.8	.
18	N#C/C(=C\c1cccs1)C(=O)Nc1nccs1	0.8	0.1%	-3.7	-4.1	8.4%	?	.
19	CCN1CCC(N(Cc2ccc3c(c2)OCO3)C(=O)Nc2ccccc2OC)CC1	-0.7	-0.8%	.	-3.5	.	.	1.6%
20	CCc1cccc(C)c1NC(=O)COCc1cc(-c2ccc3c(c2)OCO3)on1	5.7	-0.9%	.	-22.5	.	.	?
21	CCCSc1ncc(Cl)c(C(=O)Nc2sc3c(c2C(N)=O)CCCC3)n1	0.5&0.3	8.91µM*	.	2.3	.	.	-0.7%&-2.0%
22	Cc1ccc(C(=O)Nc2ccc(F)c(S(=O)(=O)N3CCOCC3)c2)s1	-0.9	1.8%	.	-11.8	.	.	-3.5%
23	O=C1c2ccccc2C(Nc2ccc(Cl)cn2)N1c1cccnc1 (stereo not given)	1.5	0.1%	3.9	11.5	0.1%	5.9	0.2%
24	O=C(NCc1ccccc1)c1ccc(NC(=O)N2CCSc3ncccc32)cc1	-0.2	2.1%	.	-16.0	.	.	31.6µM*
25	CCC(C)NC(=O)C1=CC(c2ccc3c(c2)OCO3)=NS(=O)(=O)N1C (stereo not given)	-0.2	-1.8%	.	15.8	.	.	-1.4%
26	CCN1CCN(C(=O)c2ccccc2N(Cc2ccccc2)S(C)(=O)=O)CC1	-0.7	2.0%[38.3 µM]	3.4	5.2	-8.2%	14.8	0.1%
27	CC(C)C(NC(=O)C1CCCCC1)C(=O)N1CCN(c2ccc(F)cc2)CC1 (stereo not given)	0.0	-2.0%	1.2	34.5	7.7%	-8.6	-2.9%
28	O=C(O)CCC/C=C\C[C@@H]1[C@@H](/C=C/[C@@H](O)COc2cccc(Cl)c2)[C@H](O)C[C@@H]1O	0.1	2.5%	-0.9&0.4&-0.1&-13.0&-1.6	-5.6	24.3%&-11.7%&19.6%&9.8%&-9.7%&12.8%	6.1	-1.0%
29	COc1ccccc1NC(=O)c1ccccc1NS(C)(=O)=O	-0.8	3.8%	4.3	-2.4	21.0%	5.8	-4.7%
30	O=C(CCN1C(=O)c2ccccc2S1(=O)=O)Nc1ccc(F)cc1F	1.7	-1.1%	-0.8	14.6	15.1%	13.5	0.8%
31	Nc1nonc1-n1nnc(C(=O)N/N=C/c2ccncc2)c1-c1cccs1	-0.7	0.5%	.	-10.9	22.9%	-12.8	-5.2%
32	COc1cc(NC(=S)NC(=O)C(C)C)ccc1NC(=O)c1cc2ccccc2o1	0.5	1.7%	-5.2	-4.5	18.3%	-4.3	-3.4%
33	Cc1ccc(S(=O)(=O)Nc2cnc3ccccc3c2)cc1	2.2	3.4%	0.4	-6.1	14.5%	?	-20.4%
34	COc1cccc(NC(=S)NC(=O)/C=C/c2ccc(F)cc2)c1	-0.1	-0.4%	-11.3	-10.2	1.5%	-13.5	0.6%
35	COc1ccc(-n2ccnc2SCC(=O)NCc2ccco2)c(OC)c1	-0.2	-0.8%	1.7	0.8	20.2%	1.0	1.4%
36	Cc1ccc(SC2CC(=O)N(c3ccc4c(c3)OCCO4)C2=O)cc1 (stereo not given)	0.2	1.1%	-5.2	44.3	15.2%	-1.4	.
37	COc1ccc(CN(CC(=O)NC2CCCCC2)C(=O)CCCC(=O)Nc2ccccn2)cc1	-1.1	0.4%	-1.6	1.8	5.0%	-1.5	1.9%
38	COc1ccc2c(c1)C(=O)CCC2c1ccccc1 (stereo not given)	1.1	1.9%	5.6	-7.0	1.6%	0.7	.
39	O=C(O)c1ccccc1C(=O)N1CC=C(c2ccccc2)CC1	0.8	-2.3%	0.9	-1.1	7.1%	1.7	-23.1%
40	O=C(CCSc1ccc(Cl)cc1)NC1CCCCC1	-1.3	9.1%	5.8	2.9	16.0%	13.9	1.2%
41	CC(=O)N1CCN(c2ccc([N+](=O)[O-])c(-n3nc(C)cc3C)c2)CC1	-0.8	1.2%	5.6	11.4	2.5%	-5.0	1.4%
42	C[C@H]1COC(=O)[C@@H](Cc2ccc(F)cc2)C/C=C\C[C@@H](CC(=O)NCCO)C(=O)N1	0.2	0.1%	.	2.2	.	.	0.2%
43	Cc1ccc(S(=O)(=O)CC(=O)N2CCN(c3ccc([N+](=O)[O-])cc3)CC2)cc1	-0.3	-1.7%	.	1.6	.	.	.
44	Cc1nc(-c2cccc(NS(C)(=O)=O)c2)cs1	3.3	-0.4%[38.3 µM]	4.2	27.4	10.0%	-3.7	-0.3%
45	Cc1ccc(NC(=O)CSc2nnc(CNC(=O)c3ccco3)n2C)cc1C	-0.7	0.7%	.	-6.4	.	-15.9	1.2%
46	Cc1cccc(-c2nc3c(c(SCC(=O)N(C)C)n2)CCCC3)c1	2.6	3.0%	-1.2	-4.2	-1.3%	-0.8	-0.5%
47	COc1cccc(CN(C)CC(=O)Nc2ccccc2C(C)C)c1	1.7	1.5%	-0.4	33.8	?	3.2	-0.3%
48	CN(C)CCN(Cc1ccco1)C(=O)c1cc2c(s1)-c1ccccc1OC2	1.2	5.3%	.	8.1	.	.	4.6%
49	COc1ccccc1N1CCN(C2CCCN(C(=O)CCn3cncn3)C2)CC1 (stereo not given)	0.3	0.4%	0.9	11.0	23.3%	-7.0	-3.9%
50	C[C@@H]1CN([C@@H](C)CO)C(=O)Cc2cc(NC(=O)Nc3ccc4c(c3)OCO4)ccc2O[C@@H]1CN(C)C(=O)NC1CCCCC1	0.7	3.0%	.	-10.7	.	.	0.1%
51	CC1=C(C(=O)Nc2ccccc2)C(c2ccco2)NC(=S)N1 (stereo not given)	0.7	-3.4%	0.0	-4.4	18.8%	10.3	1.3%
52	Cc1ccc(C2(C)NC(=O)N(CC(=O)Nc3ccc4c(c3)OCO4)C2=O)cc1 (stereo not given)	3.2	1.8%	8.7	8.4	3.6%	-2.7	-0.2%
53	CCC(=O)NNc1ccc(Br)cc1	-0.1	-0.3%	-5.6	-2.4	-5.3%	9.1	.
54	O=C(C1CCC(=O)N(C2CC2)C1)N(CCO)Cc1ccccc1 (stereo not given)	-0.5	4.0%	-1.3	-7.5	24.5%	6.9	0.2%
55	O=C(O)CCc1nc2ccccc2n(CCc2ccccc2)c1=O	-0.7	0.0%	-0.2	0.4	6.3%	-6.3	?
56	CCCc1c(C)nn(C(=O)/C(C#N)=N/Nc2ccccc2[N+](=O)[O-])c1C	0.9	-0.8%	1.0	5.2	-12.2%	-7.1	.
57	CC(=O)Nc1ccc(S(=O)(=O)Nc2nnc(C(C)C)s2)cc1	-0.3	-1.4%	0.4	17.1	-3.2%	6.9	-1.6%
58	CCOC(=O)[C@H]1[C@H]2COc3ccc(Br)cc3[C@@H]2N2C(=O)c3cc(Br)ccc3NC(=O)[C@@]12C	0.7	2.0%	.	2.1	.	24.7	-3.0%
59	CC(=O)C1=C(O)C(=O)N(Cc2ccccc2)C1c1ccc(N(C)C)cc1 (stereo not given)	-0.3	-0.5%	0.5	-7.5	8.5%	-9.3	-0.4%
60	N#Cc1cc2[nH]c(=O)c(=O)[nH]c2cc1[N+](=O)[O-]	-0.2	.	-1.0&15.8	4.2	-0.4%&-0.5%	.	.
61	CCOc1ccc(NC(=O)c2nccnc2CO)cc1	0.4	6.6%[38.3 µM]	-1.8	-1.9	1.8%	2.5	0.4%
62	N#Cc1ccccc1S(=O)(=O)N1CCN(C(=O)c2cccc(S(=O)(=O)N3CCCC3)c2)CC1	2.5	0.2%	.	-11.9	.	.	1.0%
